HNF4A DNA FP = change in binding of human HNF4A to DNA, primary screen, biochemical, fluorescence polarization, FITC-DNA. Hepatocyte nuclear factor 4-alpha (Homo sapiens), P41235. 1 h. activity change, % at 10 µM. hit rate 0.3% among 360,000; in the data active means activity change above about 30%, passing the limit was not always enough;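 further: controls were the assay level and a saturating level of protein; the project sought stronger binding though the title names inhibitors; some compounds called inactive have numbers as strong as hits; positive values seem to mean higher polarization but the record does not say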
Target sequence (P41235 whole entry, looked up): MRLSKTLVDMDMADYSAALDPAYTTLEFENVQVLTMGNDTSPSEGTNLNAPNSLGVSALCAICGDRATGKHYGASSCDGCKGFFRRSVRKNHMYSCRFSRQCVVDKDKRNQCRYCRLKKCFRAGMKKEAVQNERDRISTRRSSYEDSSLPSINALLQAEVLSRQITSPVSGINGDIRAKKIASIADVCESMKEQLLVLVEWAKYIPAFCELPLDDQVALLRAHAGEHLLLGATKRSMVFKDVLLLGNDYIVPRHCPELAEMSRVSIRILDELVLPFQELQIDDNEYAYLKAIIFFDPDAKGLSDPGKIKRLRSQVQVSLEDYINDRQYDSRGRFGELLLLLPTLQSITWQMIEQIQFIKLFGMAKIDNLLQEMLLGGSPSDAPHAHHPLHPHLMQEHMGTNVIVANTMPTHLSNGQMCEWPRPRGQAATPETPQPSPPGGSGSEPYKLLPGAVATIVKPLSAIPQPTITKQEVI
The depositor's hits bear a star. These rows are one share of the data (hit frequency here may not be typical).

Compound | HNF4A DNA FP
CC1(c2nc3ccccc3[nH]2)c2ccccc2C(=O)N1Cc1ccccc1 (stereo not given) | -3.6
O=C(NCc1cccc(Cl)c1)C1Cc2c(-c3cccc(F)c3)ccnc2O1 (stereo not given) | -3.1
C[C@@H]1CN([C@@H](C)CO)C(=O)CCCn2nncc2CO[C@H]1CN(C)C(=O)NC1CCCCC1 | 3.9
CCCNC(=O)C1(C)CCN(Cc2ccc(OC)c3ccccc23)C1 (stereo not given) | 1.3
Cc1ccccc1S(=O)(=O)NC(=O)C1(C)CCN1C(=O)C(C)(C)c1ccccc1 (stereo not given) | 38.8*
CC1(C(=O)NS(=O)(=O)c2ccc(Cl)s2)CCN1C(=O)Cc1cc(F)ccc1F (stereo not given) | 2.8
O=c1[nH][nH]c2c1[C@@H](c1ccc(F)cc1)O[C@H](CCOCc1ccccc1)C2 | -2.5
CC(=O)Nc1cc(-c2cccc(C(=O)N(C)C)c2)cn2c(-c3ccccc3)cnc12 | 1.2
COC(=O)c1ccc2nc(-c3ccc(F)cc3)c(Cc3cccc(F)c3)n2c1 | 8.8
CC1=C(C(=O)N(C(C)C)C(C)C)CC(CC(=O)NC2CCCC2)C(=O)N1Cc1ccc(C(C)(C)C)cc1 (stereo not given) | 1.5
COC(=O)[C@]12CCCCC=C1N(Cc1ccc(Cl)cc1Cl)C(=O)[C@H](CC(=O)N1CCN(C(=O)C3CC3)CC1)C2 | 3.1
CN(Cc1ccccc1)C(=O)C(=O)c1ccccc1 | -2.2

Entries shown so far that have nitrogen in an aromatic ring, in the order listed:
Compound | HNF4A DNA FP
CC1(c2nc3ccccc3[nH]2)c2ccccc2C(=O)N1Cc1ccccc1 (stereo not given) | -3.6
O=C(NCc1cccc(Cl)c1)C1Cc2c(-c3cccc(F)c3)ccnc2O1 (stereo not given) | -3.1
C[C@@H]1CN([C@@H](C)CO)C(=O)CCCn2nncc2CO[C@H]1CN(C)C(=O)NC1CCCCC1 | 3.9
O=c1[nH][nH]c2c1[C@@H](c1ccc(F)cc1)O[C@H](CCOCc1ccccc1)C2 | -2.5
CC(=O)Nc1cc(-c2cccc(C(=O)N(C)C)c2)cn2c(-c3ccccc3)cnc12 | 1.2
COC(=O)c1ccc2nc(-c3ccc(F)cc3)c(Cc3cccc(F)c3)n2c1 | 8.8

More results follow:
Compound | HNF4A DNA FP
CN(C)CCN(C(=O)C1CCCCC1)c1nc2cc3c(cc2s1)OCCO3 | -2.8
COC(=O)C[C@@H]1C=C[C@@H](NS(=O)(=O)c2cccc(OC)c2)[C@@H](CO)O1 | 2.6
CCc1nc2c(OCCc3cccc(OC)c3)cccn2c1N(C)C(=O)c1ccc(OC)cc1 | 4.5
C=CCC(NC(=O)N(C)C)(C(=O)OC)C(C)O (stereo not given) | 0.4
CCC(=O)N1CCCC(C)(C(=O)Nc2nccc3ccccc23)C1 (stereo not given) | -5.2
COc1ccc(OC)c(CN2C(=O)CCC2(C)c2nnnn2-c2c(C)cccc2C)c1 (stereo not given) | 1.5
CCCS(=O)(=O)NC(=O)C1(C)CCCN(C(=O)c2ccncc2)C1 (stereo not given) | 1.2
COC(=O)c1ccc2nc(-c3cccc(Br)c3)c(Cc3cccc(F)c3)n2c1 | 15.1
O=C(COC(=O)C1CCN(S(=O)(=O)c2ccc(Cl)c(C(F)(F)F)c2)CC1)NCC1CCCO1 (stereo not given) | 2.1
Cc1ccc(S(=O)(=O)NC(=O)C2(C)CCN2C(=O)CC2CCCC2)cc1 (stereo not given) | 2.0
O=C(NCc1ccccc1)c1cc(C2COCCN2S(=O)(=O)c2cccs2)on1 (stereo not given) | -0.9
CCc1nc2ccc(C(=O)NC3CCN(Cc4ccccc4)CC3)cn2c1N(C)Cc1cc2ccccc2s1 | -0.1
ClN=C1C=CC=CC1=NCl | -63.0
COc1ccc(C2=Nc3ccccc3NC(=O)C2N(Cc2ccc(F)cc2)C(=O)c2ccco2)cc1 (stereo not given) | 5.7
CCCCCCn1cc(CN2CC(N(C)C)CS2(=O)=O)nn1 (stereo not given) | 2.8
c1ccc2c(c1)ccn1c(Cc3ccsc3)c(C3CCCCC3)nc21 | 9.5
C[C@H]1CN([C@@H](C)CO)C(=O)c2c(c3ccccc3n2C)-c2ccccc2CO[C@H]1CN(C)Cc1cccc(F)c1 | -0.9
O=C(Nc1ccc2c(c1)OCO2)C1Cc2c(-c3ccc4c(c3)OCO4)ccnc2O1 (stereo not given) | 0.4
CC(=O)c1cccc(NC(=O)C2CCCN2S(=O)(=O)c2cccs2)c1 (stereo not given) | 0.0
CN(C)c1ccc(CNC(=O)C2(C)Cc3c(-c4cccc(C(F)(F)F)c4)ccnc3O2)cc1 (stereo not given) | -0.5
CNc1cccc(-c2ccccc2C(C)=O)n1 | 2.2
CCc1ccc(N2C=C(C(=O)OC)C(c3cccc4ccccc34)C(C#N)=C2N)cc1 (stereo not given) | -4.0
Cc1ccc(S(=O)(=O)N2C3CC(c4ccccc4)N(S(=O)(=O)c4ccccc4Cl)CC3C(=O)C[C@H]2c2ccccc2)cc1 (stereo not given in full) | -0.6
CC1(C(=O)NS(=O)(=O)c2ccc(F)cc2F)CCN1C(=O)Cc1ccccc1Cl (stereo not given) | 2.5
CCCC(=O)Nc1cc(OC)c(NC(=S)Nc2cccc(C)c2)cc1OC | 2.3
Cc1nc(NC(=O)C(C)(C)C)sc1-c1nc(N)sc1-n1cc(-c2ccccc2)nn1 | -2.3
COc1ccc(-c2coc3c(C(=O)NCc4ccc(OC)c(OC)c4)cccc23)c(C)c1 | -3.1
CC(=O)Nc1ccc(-c2ccnc3c2CC(C)(C(=O)Nc2ccc(C(C)C)cc2)O3)cc1 (stereo not given) | 0.1
CCNC(=O)C1(C)CCCN(C(=O)c2ccccc2Br)C1 (stereo not given) | 2.9
CN1CCN(c2ncnc3c2ncn3[C@H]2CN(Cc3cccnc3)C[C@@H](CO)O2)CC1 | 1.1
O=C1c2c(-c3ccc(Br)cc3)noc2CCN1Cc1cn(-c2ccccc2)nn1 | 3.1
COC(=O)[C@@]12C[C@@H](CC(=O)N3CCCC3)C(=O)N(CCc3ccc(OC)c(OC)c3)C1=CCC(C)(C)C2 | 5.1
COCOc1cccc(CN2CCC(C)(Oc3ccc(SC)cc3)C2)c1 (stereo not given) | 0.0
CCCCCCCCN1C(=O)[C@H](CC(=O)N2CCCC2)C[C@@]2(C(=O)OC)CC(C)(C)CC=C12 | -3.0
COCCN(Cc1ccc(OC)cc1)c1c(C)nc2ccc(C(=O)NCCc3c[nH]c4ccccc34)cn12 | 3.4
O=C1NC[C@@H](CCCCN2C[C@H](Cc3ccccc3)N(CC3CCCCC3)C(=O)C2=O)N(CCc2ccccc2)C1=O | -2.4
CCc1nc2c(OCc3cc(Cl)cc(Cl)c3)cccn2c1N(C)C(=O)c1cccc(OC)c1 | 4.4
Cc1cccc(N2CCN(C3C(=O)Nc4ccccc4-n4nnnc43)CC2)c1C (stereo not given) | 1.6
Nc1nc2c(Br)ccc(Br)c2cc1C(=O)NCc1cccc2ccccc12 | 3.3
COc1ccc(C(C)(O)c2nc(-c3cccc(C(=O)O)c3)cs2)cc1 (stereo not given) | -3.8
CCCCOCCCNC(=O)C[C@@H]1C[C@@]2(C(=O)OCC)CCC=C2N(Cc2ccc(Cl)cc2Cl)C1=O | -3.9
CCCCNC(=O)C1(C)CCN1C(=O)c1oc2ccccc2c1C (stereo not given) | 3.6
O=C(Nc1nnc([C@@H]2C[C@H](O)[C@@H](CO)O2)s1)Nc1ccccc1C(F)(F)F | -1.3
Cc1cccc(C)c1N1C(=O)c2ccccc2NC(=O)C1C(=O)NCCOc1ccccc1 (stereo not given) | -3.6
O=C(Nc1ccnn1C1CCN(C(=O)c2cccnc2)CC1)c1cccc(F)c1 | 3.5
CC(C)C[C@H]1CN([C@@H](Cc2ccc(O)cc2)CN2CCC[C@H]2CN2C(=O)C(=O)NC[C@@H]2Cc2ccccc2)C(=O)C(=O)N1CC1CCCCCC1 | 2.0
COc1ccc(-c2cc(C(F)(F)F)n3nc(C(N)=O)cc3n2)cc1 | 0.4
O=C(NCCN1CCC(n2c(=O)[nH]c3ccccc32)CC1)c1c(F)cccc1F | 0.3
COc1cccc(C(=O)Nc2ccc3c(c2)OC[C@H](C)N(C(=O)C2CCCC2)C[C@@H](C)[C@@H](OC)CN(C)C3=O)c1 | 3.6
N#Cc1ccc(-c2nc3c4ccccc4ccn3c2CC2CCCCC2)cc1 | 2.0
CCCCNc1c(-c2ccccn2)nc2nc(C)cc(C)n12 | 8.3
OC(c1ccccc1)(c1nc(/C=C/c2ccccc2)cs1)C(F)(F)F (stereo not given) | 1.6
CCOc1cc(-c2ccccc2)nc2c1CN(S(=O)(=O)c1ccc(C)cc1)C(c1cccc(Cl)c1)C2 (stereo not given) | 0.4
Cn1c(=O)c2c(-c3ccccc3)n(-c3cc(C(=O)O)ccc3O)cc2n(C)c1=O | -0.2
CCc1nc2ccc(C(=O)Nc3cc(-c4ccccc4)ccc3OC)cn2c1N(C)CCCc1ccccc1 | -2.7
C#CCN(C[C@H]1[C@H](OC(=O)NCC2CCCCC2)[C@H](OC(=O)NCC2CCCCC2)C[C@H]2C(=O)N(c3ccccc3)C(=O)[C@@H]12)S(=O)(=O)c1ccc(C)cc1 | 1.9
Nc1nc(N)c2ncn(C3C=CC(CO)C3)c2n1 (stereo not given) | 1.5
COc1ccc(NC(=O)c2cc(-c3sc(NC(=O)c4ccccc4)nc3C)n(Cc3ccccc3)n2)cc1 | 2.4
C[C@H]1CN([C@@H](C)CO)S(=O)(=O)c2ccc(-c3ccncc3)cc2O[C@H]1CN(C)C(=O)c1cccc(F)c1 | -0.5
OC(c1ccccc1)c1nc(-c2cncnc2)cs1 (stereo not given) | -3.2

(cont.)
Compound | HNF4A DNA FP
CC(O)(c1ccccc1)c1nc(-c2ccccc2)cs1 (stereo not given) | 0.3
Cc1ccc2nc(-c3ccccc3)c(CC3CCCCC3)n2c1 | 7.5
CN(C)c1ccc(CC(=O)N2CCCC(c3cc(C(=O)Nc4ccc5c(c4)OCO5)no3)C2)cc1 (stereo not given) | 5.0
CC(C)C[C@H]1COc2cc(N(C)CCO)ccc2S(=O)(=O)N1 | -2.4
CC(C)(C)Cc1c(-c2ccc(Cl)cc2)nc2c(Cl)cc(C(F)(F)F)cn12 | -2.4
COc1cc(C(=O)c2cc3c(cc2C)OCO3)cc(OC)c1OC | 1.6
COc1ccc(-c2coc3c(C(=O)NCc4ccco4)cccc23)c(C)c1 | 1.1
CCCS(=O)(=O)NC(=O)C1(C)CCN(C(=O)c2ccco2)C1 (stereo not given) | 4.3
Cc1cccc(CNC(=O)c2sc(=O)n(Cc3ccc(S(C)(=O)=O)cc3)c2C)c1 | -3.1
Cc1ccc(CN2C(=O)CSCC2(C)C(=O)NCc2ccccc2)cc1 (stereo not given) | 4.9
O=C(NCC1CCOCC1)c1cccc2c(-c3cccnc3)coc12 | -2.6
O=C(NCc1cccc(C(F)(F)F)c1)C1C(=O)Nc2ccccc2C(=O)N1C1CCCC1 (stereo not given) | -1.1
CCC(c1nnnn1-c1ccc2c(c1)OCCO2)N1CCN(c2cc(C)ccc2C)CC1 (stereo not given) | 2.3
CCCNC(=O)C1(C)CCN(C(=O)c2cc(C)nn2C(C)(C)C)C1 (stereo not given) | 1.1
CCCCN(CCCC)Cc1cc(=O)oc2cc(C)c(Cl)cc12 | 1.4
CC(=O)NC(c1ccccc1)c1nc(-c2cccc(C(=O)O)c2)cs1 (stereo not given) | 2.1
COc1cc2oc(=O)cc(CN3CCN(C(C)=O)CC3)c2cc1Cl | -2.2
CCCNC(=O)C1(C)CCCN(C(=O)c2cccc(C(F)(F)F)c2)C1 (stereo not given) | 0.8
COCCNC(=O)C1(C)Cc2c(-c3cccc(C(N)=O)c3)ccnc2O1 (stereo not given) | 3.5
Cc1ccc(S(=O)(=O)N2[C@H](CC(=O)c3cccs3)OC[C@@H]2C(C)C)cc1 | 3.4
CC(=O)NC(c1ccc(F)c(F)c1)c1nc(-c2cc3ccccc3o2)cs1 (stereo not given) | 1.1
CCNC(=O)C1(C)CCCN1C(=O)c1ccc2c(c1)OCO2 (stereo not given) | 1.4
CC(C)(C)S(=O)N1Cc2cc(C(=O)NCc3ccc(Oc4ccccc4)cc3)nc(-c3cccc(-c4cc5ccccc5o4)c3)c2[C@@H]1CCO (stereo not given in full) | 14.2
CCCN1C[C@@H](C)[C@@H](OC)CN(C)C(=O)c2ccc(NC(=O)c3cccc(F)c3)cc2OC[C@H]1C | 3.6
c1coc(-c2cc3nc(NCc4ccc5c(c4)OCO5)ccn3n2)c1 | 8.8
CC(C)(C)n1nnnc1C(c1ccccc1)N1CCN(c2ccccn2)CC1 (stereo not given) | -5.0
CC(=O)Nc1ccc(CN(C)c2c(C)nc3ccc(C(=O)N4CCN(c5ccccc5)CC4)cn23)cc1 | 0.1
CCC(=O)N1CCC1(C)C(=O)Nc1cnc2ccccc2c1 (stereo not given) | -0.9
CC1(C(=O)NS(=O)(=O)c2cccc(C#N)c2)CCN1C(=O)CC1CCCCC1 (stereo not given) | -2.9
N#Cc1ccc(C2CC(OCCF)=CC(=O)O2)cc1 (stereo not given) | 2.7
COc1ccc(CNC(=O)Nc2nnc([C@H]3C[C@H](O)[C@@H](CO)O3)s2)cc1 | 2.0
CCNC(=O)C[C@@H]1CC[C@H]2[C@@H](COC[C@H](O)CN2C(=O)C2CC2)O1 | -0.7
COc1ccc(-c2ccc(C(=O)Nc3cccc(N(C)C)c3)c3occc23)c(C)c1 | 0.4
Cc1noc(C)c1-c1ccc(C(=O)Nc2ccc(C(C)C)cc2)c2occc12 | -0.4
COc1cc(F)ccc1-c1cc(C(=O)NCc2cccc(Cl)c2)[nH]n1 | 150.4
CCNC(=O)c1cc2c(c(-c3cccc(-c4ccccc4F)c3)n1)[C@H](CCO)N(C(=O)CC)C2 | 0.8
COCCCNC(=O)c1cccc2c(-c3ccc(O)c(OC)c3)coc12 | 2.2

From PubChem
